# Source: PubChem (Broad Institute)
# ID4 SMM: binders of human ID4 protein. P47928. small molecule microarray, Flag-ID4 binding, fluorescence F/B. calls only. 1.2% of 31,000 active. AID 624137;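 active = spot signal over background at p below 0.07 in all four prints; compounds were printed on slides so no solution concentration is given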;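 also: a binder raises fluorescence above local background on the spot; about 2 pmol printed per array spot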
# Target sequence (P47928 whole entry, looked up): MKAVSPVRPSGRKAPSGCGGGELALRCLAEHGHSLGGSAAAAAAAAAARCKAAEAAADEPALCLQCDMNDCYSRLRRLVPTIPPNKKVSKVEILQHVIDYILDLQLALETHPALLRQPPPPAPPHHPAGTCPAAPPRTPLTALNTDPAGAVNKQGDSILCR
# Calls only; i = inactive; + = active, no number. These rows are one share of the data (hit frequency here may not be typical).
SMILES,ID4 SMM
C[C@@H]1CN([C@H](C)CO)C(=O)c2cc(-c3ccccc3F)cnc2O[C@H]1CN(C)C,i
O=C(C[C@H]1CC[C@H](NC(=O)Nc2ccc3c(c2)OCO3)[C@@H](CO)O1)NCc1ccc(Cl)cc1,i
COc1ccc(CCNC(=S)Nc2c(C)n(C)n(-c3ccccc3)c2=O)cc1OC,i
COc1ccccc1C#Cc1cnc2c(c1)C(=O)N([C@H](C)CO)C[C@H](C)[C@@H](CN(C)C(=O)CC1CC1)O2,i
C[C@@H]1CN([C@@H](C)CO)C(=O)c2cc(-c3ccncc3)cnc2O[C@H]1CN(C)C(=O)C1CC1,i
O=C(CCSc1nc2ccccc2s1)N1CCOCC1,i
C[C@H](CO)N1C[C@H](C)[C@H](CN(C)CC2CCOCC2)Oc2cc(C#Cc3cccnc3)ccc2S1(=O)=O,i
CCOC(=O)c1c(NC(=O)COc2ccccc2C)sc2c1CCC2,i
Cc1ccc(-c2cnc3c(c2)C(=O)N([C@H](C)CO)C[C@H](C)[C@@H](CN(C)C(=O)c2cccnc2)O3)cc1,i
COc1ccccc1NC(=O)c1ccc(OC(C)C(=O)O)cc1 (stereo not given),i
COc1ccc(S(=O)(=O)N2Cc3ccccc3CC2C(=O)Nc2ccc(C)cc2C)cc1OC (stereo not given),i
C[C@H]1CN([C@@H](C)CO)C(=O)c2cc(-c3ccccc3)cnc2O[C@@H]1CN(C)C(=O)c1cccc(F)c1,i

# Rewritten with each value named: 2 of the compounds above.
> C[C@H]1CN([C@@H](C)CO)C(=O)c2cc(-c3ccccc3)cnc2O[C@@H]1CN(C)C(=O)c1cccc(F)c1
  ID4 SMM: i

> COc1ccc(CCNC(=S)Nc2c(C)n(C)n(-c3ccccc3)c2=O)cc1OC
  ID4 SMM: i

# Continuation.
SMILES,ID4 SMM
COc1ccc(S(=O)(=O)N[C@H]2C=C[C@H](CC(=O)N3CCc4ccccc4C3)O[C@@H]2CO)cc1,i
Cc1c(Cl)ccc2c(C(=O)Nc3ccc(S(=O)(=O)N4CCOCC4)cc3)cc(-c3cccnc3)nc12,i
COc1ccc(S(=O)(=O)NCc2ccccn2)cc1Cl,i
Cc1ccc(CN(C)C[C@@H]2OCc3cnnn3CCCC(=O)N([C@H](C)CO)C[C@H]2C)cc1,i
C[C@H]1CN([C@@H](C)CO)C(=O)c2cc(-c3ccccc3F)cnc2O[C@H]1CN(C)C(=O)C1CCCCC1,i
Cc1ccc2nc(-c3cccnc3)cc(C(=O)Nc3scc(-c4ccc(C)c(C)c4)c3C(N)=O)c2c1,i
O=C(CSc1nc2ccccc2c(=O)n1-c1ccc(Cl)cc1)Nc1ccc(Cl)c(Cl)c1,i
Cc1sc2ncnc(SCC(=O)Nc3ccc(F)cc3)c2c1C,i
C=CC(=O)c1ccc2ccccc2c1,i
C[C@H]1CN([C@@H](C)CO)C(=O)c2cc(C3=CCCC3)cnc2O[C@H]1CN(C)C(=O)CN(C)C,i
COC(=O)c1cccc(NC(=O)CSc2nc(C)cc(-c3ccccc3)n2)c1,i
COCCCNC(=O)[C@@]1(CCS(=O)(=O)c2ccccc2)N=C(c2ccc(OCCCO)cc2)O[C@H]1c1ccccc1,i
C[C@@H]1CN([C@@H](C)CO)C(=O)c2cc(-c3ccc(F)cc3)cnc2O[C@H]1CN(C)C(=O)C1CCC1,i
Cc1c(Br)c([N+](=O)[O-])nn1CC(=O)Nc1cc(F)ccc1F,i
Cc1noc(C)c1NC(=O)N(C)C[C@@H]1Oc2cc(C#CCN(C)C)ccc2S(=O)(=O)N([C@H](C)CO)C[C@H]1C,i
Cc1ccc2oc(-c3ccc(Cl)c(NC(=O)COc4ccc(C)c(C)c4)c3)nc2c1,i
O=C(O)CCCC(=O)Nc1ccc(I)cc1,i
Cc1ccc2cc(S(=O)(=O)NCCCC(=O)O)ccc2c1,i
O=C(C[C@H]1C[C@H]2c3cc(NC(=O)c4cccnc4)ccc3O[C@H]2[C@H](CO)O1)NCc1cccc(F)c1,i
Cc1ccc(C(=O)CC2(O)C(=O)N(Cc3cccc4ccccc34)c3ccccc32)o1 (stereo not given),i
Cn1c(=O)c2c(nc(SCc3nn[nH]n3)n2Cc2ccccc2F)n(C)c1=O,i
COC(=O)C[C@@H]1C=C[C@@H](NC(=O)Nc2ccc(C(F)(F)F)cc2)[C@@H](CO)O1,i
C[C@@H]1CN([C@H](C)CO)C(=O)c2c(c3ccccc3n2C)-c2ccccc2CO[C@@H]1CN(C)C(=O)Nc1cccc(F)c1,i
COC(=O)C[C@H]1CC[C@@H](NC(=O)c2ccccc2)[C@@H](CO)O1,i
CN(C)CC(=O)Nc1ccc2c(c1)[C@H]1C[C@@H](CC(=O)NCc3ccc4c(c3)OCO4)O[C@H](CO)[C@H]1O2,i
O=C(C[C@H]1C=C[C@@H](NS(=O)(=O)c2ccc(F)cc2)[C@H](CO)O1)NC1CCCCC1,i
Cc1cnc(N(C(=O)c2c(-c3ccccc3)noc2C)C(=O)c2c(-c3ccccc3)noc2C)c(C)n1,i
COC(=O)Nc1ccc(S(=O)(=O)N2CCCC(C(=O)Nc3ccc(N(C)C)cc3)C2)cc1 (stereo not given),i
COc1ccc(S(=O)(=O)N(C)CC(=O)Nc2cccc(C(C)=O)c2)cc1,i
O=C(Nc1ccc(S(=O)(=O)Nc2ccccc2Oc2ccc(Cl)cc2Cl)cc1)C1CC1,i
C[C@@H]1CN([C@H](C)CO)C(=O)c2cc(C#CCN(C)C)cnc2O[C@@H]1CN(C)Cc1ccccn1,i
C[C@@H](NC(=O)C[C@@H]1C=C[C@H](NC(=O)C2CCC2)[C@H](CO)O1)c1ccccc1,i
O=c1cc(CO)oc(C(Nc2ccccn2)c2ccccc2O)c1O (stereo not given),i
COc1ccc(NC(=O)CN(C)S(=O)(=O)c2ccc(Cl)cc2)c([N+](=O)[O-])c1,i
Cc1ccc(S(=O)(=O)N(C)CC(=O)Nc2ccc(C(F)(F)F)cc2)cc1,i
O=C(C[C@@H]1C=C[C@@H](NC(=O)CC2CC2)[C@H](CO)O1)NCc1ccc(Cl)cc1,i
CO[C@@H]1CN(C)C(=O)c2ccc(NC(C)=O)cc2OC[C@@H](C)N(CCC(F)(F)F)C[C@H]1C,i
CCC(=O)N(C)C[C@H]1Oc2ncc(C#CCC(C)C)cc2C(=O)N([C@@H](C)CO)C[C@@H]1C,i
Cc1onc(-c2c(F)cccc2Cl)c1C(=O)NCCCN1CCOCC1,i
CC(=O)N(C)C[C@@H]1Oc2ncc(C#CCc3ccccc3)cc2C(=O)N([C@@H](C)CO)C[C@H]1C,i
COc1cccc(S(=O)(=O)N[C@H]2CC[C@@H](CC(=O)NC3CCC3)O[C@@H]2CO)c1,i
COc1ccccc1C#Cc1cnc2c(c1)C(=O)N([C@H](C)CO)C[C@@H](C)[C@H](CN(C)C(=O)c1ccc3c(c1)OCO3)O2,i
CS(=O)(=O)N(CC(=O)Nc1ccc(Oc2ccccc2)cc1)c1cc(Cl)c(Cl)cc1Cl,i
Cc1ccc(-c2cc(C)nc(SCC(=O)Nc3ccc(C)c(C)c3)n2)cc1,i
Cc1ccc(NC(=O)CSc2nnc(-c3ccccc3)n2-c2ccccc2)cc1Cl,i
[N-]=[N+]=NCc1ccccc1C[C@]1(C(=O)N2CCCCC2)N=C(c2ccc(OCCCO)cc2)O[C@H]1c1ccccc1,i
Cc1ccc(NC(=O)c2ccco2)c(NC(=O)COc2ccccc2Cl)c1,i
CCn1c(SCc2nc3ccccc3[nH]2)nnc1-c1cccc(Cl)c1,i
COc1ccccc1CN=c1c([N+](=O)[O-])nn(-c2ccccc2)n1O,i
C[C@@H](NC(=O)C[C@@H]1C=C[C@@H](NC(=O)Cc2ccccn2)[C@H](CO)O1)c1ccccc1,i
COCC#Cc1cnc2c(c1)C(=O)N([C@H](C)CO)C[C@@H](C)[C@@H](CN(C)Cc1ccccc1)O2,i
CCc1cccc(C)c1NC(=O)CSc1nc2ccccc2c(=O)n1-c1ccc(C)cc1,i
N#Cc1cc2c(nc1SCC(=O)Nc1ccccc1OC(F)(F)F)CCCC2,i
CCCCC(CC)C(=O)Nc1cc(OC)ccc1OC (stereo not given),i
O=C(C[C@@H]1C=C[C@H](NS(=O)(=O)c2ccc(F)cc2)[C@@H](CO)O1)NCc1ccncn1,i
O=C(O)c1cccc(CSc2n[nH]c(-c3ccc(Cl)cc3)n2)c1,i
CNC(=S)NCc1sc2ccccc2c1C,i
CC(=O)NC(c1cccc([N+](=O)[O-])c1)c1c(O)ccc2ccccc12 (stereo not given),i
O=S1(=O)N=C(N(Cc2ccccc2O)c2ccc(Cl)cc2)c2ccccc21,i
COc1ccccc1NC(=O)c1ccccc1S(=O)(=O)c1ccccc1[N+](=O)[O-],i

# Given with each value named: 4 of the compounds above
canonical_smiles: Cc1onc(-c2c(F)cccc2Cl)c1C(=O)NCCCN1CCOCC1
  ID4 SMM: i
canonical_smiles: C[C@@H](NC(=O)C[C@@H]1C=C[C@H](NC(=O)C2CCC2)[C@H](CO)O1)c1ccccc1
  ID4 SMM: i
canonical_smiles: O=C(Nc1ccc(S(=O)(=O)Nc2ccccc2Oc2ccc(Cl)cc2Cl)cc1)C1CC1
  ID4 SMM: i
canonical_smiles: COC(=O)C[C@H]1CC[C@@H](NC(=O)c2ccccc2)[C@@H](CO)O1
  ID4 SMM: i

# (further entries)
SMILES,ID4 SMM
COC(=O)c1ccc(NC(=O)CSc2nnnn2C2CC3CCC2C3)cc1 (stereo not given),i
N#C[C@H]1[C@@H](c2ccc(C3=CCCCC3)cc2)[C@@H](CO)N1C(=O)Nc1ccccc1F,i
COc1cccc(-c2ccc3c(c2)O[C@H](CN(C)C)[C@@H](C)CN([C@H](C)CO)S3(=O)=O)c1,i
COc1ccc(S(=O)(=O)Nc2ccc3c(c2)[C@@H]2C[C@@H](CC(=O)N(C)C)O[C@@H](CO)[C@@H]2O3)cc1,i
CN(C)C(=O)C[C@@H]1CC[C@H](NC(=O)C2CCC2)[C@H](CO)O1,i
O=C(Cn1c(=O)oc2ccccc21)Nc1ccc2c(c1)oc1ccccc12,i
CCCNC(=O)N[C@H]1C=C[C@@H](CC(=O)N2CCN(C)CC2)O[C@H]1CO,i
C[C@H](O)C#Cc1cnc2c(c1)C(=O)N([C@H](C)CO)C[C@@H](C)[C@H](CN(C)C(=O)CN1CCOCC1)O2,i
CCCN(C)C[C@H]1Oc2cc(C#CC3CCCCC3)ccc2S(=O)(=O)N([C@H](C)CO)C[C@H]1C,i
C[C@H]1CN([C@@H](C)CO)S(=O)(=O)c2ccc(C#CC3(O)CCCC3)cc2O[C@@H]1CN(C)CC1CC1,i
CCn1c(SCC(=O)Nc2sc3c(c2C#N)CCCC3)nnc1-c1ccco1,i
O=C(O)c1cccc2cccc(SC(C(=O)O)c3ccccc3)c12 (stereo not given),i
C/C=C/c1ccc2c(c1)O[C@H](CN(C)CC1CCOCC1)[C@@H](C)CN([C@@H](C)CO)S2(=O)=O,i
O=C(CSc1n[nH]c(-c2ccc(Cl)cc2Cl)n1)Nc1ccc(I)cc1,i
COC(=O)Cn1nnc(-c2nnn(COC(C)=O)c2-c2ccccc2)c1-c1ccccc1,i
CCOC(=O)N(C)C[C@H]1OCc2ccccc2-c2ccccc2C(=O)N([C@@H](C)CO)C[C@H]1C,i
C[C@H]1CN([C@@H](C)CO)C(=O)c2cc(C#Cc3cccc(F)c3)cnc2O[C@H]1CN(C)C(=O)C1CCCCC1,i
COc1cc(NC(=O)COc2ccc(Br)cc2)ccc1NC(=O)c1ccco1,i
CCCN1C(=O)C(O)(CC(=O)c2ccc(OC)c([N+](=O)[O-])c2)c2ccccc21 (stereo not given),i
CS(=O)(=O)N(CC(=O)Nc1cc(Cl)ccc1Oc1ccccc1)c1ccccc1F,i
CCN(CC(=O)Nc1cc(Cl)ccc1OC)S(=O)(=O)c1ccc(C)cc1,i
CC(=O)c1cccc(-n2c(CCC(=O)O)ccc2-c2ccc(C)cc2)c1,+
CN(C)c1nc(N)nc(CSc2nnnn2-c2ccc(F)cc2)n1,i
COc1ccc(S(=O)(=O)N(C)CC(=O)Nc2ccc(Cl)c(Cl)c2)cc1,i

# Ordered by molecular weight (lowest first): some entries from above.
SMILES,ID4 SMM
CCCN1C(=O)C(O)(CC(=O)c2ccc(OC)c([N+](=O)[O-])c2)c2ccccc21 (stereo not given),i
CCN(CC(=O)Nc1cc(Cl)ccc1OC)S(=O)(=O)c1ccc(C)cc1,i
C/C=C/c1ccc2c(c1)O[C@H](CN(C)CC1CCOCC1)[C@@H](C)CN([C@@H](C)CO)S2(=O)=O,i
C[C@H]1CN([C@@H](C)CO)C(=O)c2cc(C#Cc3cccc(F)c3)cnc2O[C@H]1CN(C)C(=O)C1CCCCC1,i

# (cont.)
SMILES,ID4 SMM
CCCN(C)C[C@@H]1Oc2cc(C#CC3CCCCC3)ccc2S(=O)(=O)N([C@H](C)CO)C[C@H]1C,i
C[C@H](CO)N1C[C@H](C)[C@@H](CN(C)C)OCc2ccccc2-c2c(n(C)c3ccccc23)C1=O,i
CC(=O)Nc1ccccc1-c1nc2ccccc2nc1OCC(=O)c1ccc(Cl)cc1,i
COc1ccc(NC(=O)CN2CCN(S(=O)(=O)c3ccc(Cl)cc3)CC2)cc1,i
COc1ccc(CN2CCN(Cc3cccc(OC)c3OC)CC2)c(OC)c1,i
COc1ccc(NC(=O)CSc2nnc(-c3cccc(Cl)c3)n2C)cc1,i
O=C(Nc1ccc(I)cc1C(=O)NCc1cccnc1)c1ccccc1Cl,i
Nc1nc(C(=O)N2CCOCC2)nn1S(=O)(=O)c1ccc(Cl)cc1,i
C[C@@H]1CN([C@@H](C)CO)C(=O)Cc2cc(N(C)C)ccc2O[C@@H]1CN(C)C(=O)Nc1ccc(F)cc1,i
C[C@H]1CN([C@@H](C)CO)S(=O)(=O)c2ccc(C3=CCCCC3)cc2O[C@H]1CN(C)CC1CC1,i
C[C@@H]1CN([C@H](C)CO)S(=O)(=O)c2ccc(C#Cc3ccncc3)cc2O[C@H]1CN(C)C(=O)c1ccncc1,i
CCn1c(SCc2nc(-c3cccs3)no2)nnc1-c1cccs1,i
C[C@H](O)C#Cc1cnc2c(c1)C(=O)N([C@H](C)CO)C[C@H](C)[C@H](CN(C)CC1CC1)O2,i
